# Screens deposited in PubChem BioAssay by several laboratories.
# T cruzi repl – T. cruzi replication inhibition | T. cruzi beta-gal in NIH3T3, luminescence, 90 h | inhibition, % (test concentration not listed) | 300,000 compounds, 1.4% hits;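 active means mean inhibition across valid replicates above about 55%, limit read from the data; inconclusive means mean below that limit but half or more replicates reach it; inactive means mean below it, under half of replicates reach it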;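 further: signal also drops with host cell toxicity which is not excluded here; 0% = plate median of DMSO wells and 100% = zero luminescence signal; higher percent means less beta-gal luminescence so fewer parasites; stock transfer was 50 nL into about 50 µL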
# B2AR ag – agonists of human beta-2 adrenergic receptor inducing internalization. response, % (test concentration not listed). AID 504454. P07550. Am2.2-beta2AR cells, FAP receptor internalization, flow cytometry; reference of the scale not given here. 340,000 compounds, 0.43% hits;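 active means response above a set limit, near 3 SD of response in nonfluorescent compounds, cut at about 42% in these data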;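 further: stock transfer was 100 nL into about 11 µL; a reference agonist was the positive control; negative values mostly stem from fluorescent compounds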
# A1 inh – inhibitors of the anti-apoptotic protein A1, read as caspase activation; MEF A1-2A-BIM cells, Caspase-Glo 3/7 luminescence, 3 h; percent of clofoctol response, vehicle zero; caspase activation, % (no concentration beside the values); 330,000 compounds, 0.066% hits;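 active means over half of replicate activation scores above 10%, or exactly half above 10 with the replicate mean above 10; inconclusive means replicate mean below 10 yet half the replicates above 10; inactive means over half of replicates below 10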;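 further: wells of about 30 µL received 50 nL stock; many hits fall short of the cut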
# ALR H2O2 inh – inhibitors of human sulfhydryl oxidase ALR; AID 485317; inhibition, % (no concentration beside the values); purified ALR, DTT oxidation, H2O2 HRP-luminol luminescence; P55789; 290,000 compounds, 3.8% hits;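 active means mean and each replicate at 75% or more; inconclusive means only one of the two met; inactive means neither met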;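 further: stock transfer was 7.5 nL into about 7.5 µL; 0% = neutral wells and 100% = wells with inactivated enzyme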
# Calb FLC – C. albicans growth modulation with fluconazole. C. albicans CaCi-2 (fluconazole-resistant clinical isolate) + fluconazole, Alamar Blue growth, 48 h. growth inhibition, % (test concentration not listed). 300,000 compounds, 0.57% hits. AID 1979;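 active means most replicates above 75%; inconclusive means exactly half above 75%; inactive means most below 75%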;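 further: all wells also contain fluconazole at 8 µg/ml as a sub-toxic cotreatment; 0% = median of DMSO wells and 100% = median of geldanamycin control wells; wells of about 8 µL received 7.5 nL stock; the first replicate is given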
# LANA-H2A inh – blocks KSHV LANA binding to histone H2A/H2B; Q9QR71; cell-free LANA-H2A/H2B peptide, fluorescence polarization; inhibition, % (no concentration beside the values); 320,000 compounds, 0.6% hits; AID 2629; in the data active means inhibition mostly above about 10%, no sharp cut-off; inactive means mostly below about 6.7%;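 further: stock transfer was 7.5 nL into about 10 µL; 0% = median of vehicle wells and 100% = median of positive control wells; one replicate is shown; the record names a cut of 25% in any replicate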
# Target sequence (Q9QR71 whole entry, looked up): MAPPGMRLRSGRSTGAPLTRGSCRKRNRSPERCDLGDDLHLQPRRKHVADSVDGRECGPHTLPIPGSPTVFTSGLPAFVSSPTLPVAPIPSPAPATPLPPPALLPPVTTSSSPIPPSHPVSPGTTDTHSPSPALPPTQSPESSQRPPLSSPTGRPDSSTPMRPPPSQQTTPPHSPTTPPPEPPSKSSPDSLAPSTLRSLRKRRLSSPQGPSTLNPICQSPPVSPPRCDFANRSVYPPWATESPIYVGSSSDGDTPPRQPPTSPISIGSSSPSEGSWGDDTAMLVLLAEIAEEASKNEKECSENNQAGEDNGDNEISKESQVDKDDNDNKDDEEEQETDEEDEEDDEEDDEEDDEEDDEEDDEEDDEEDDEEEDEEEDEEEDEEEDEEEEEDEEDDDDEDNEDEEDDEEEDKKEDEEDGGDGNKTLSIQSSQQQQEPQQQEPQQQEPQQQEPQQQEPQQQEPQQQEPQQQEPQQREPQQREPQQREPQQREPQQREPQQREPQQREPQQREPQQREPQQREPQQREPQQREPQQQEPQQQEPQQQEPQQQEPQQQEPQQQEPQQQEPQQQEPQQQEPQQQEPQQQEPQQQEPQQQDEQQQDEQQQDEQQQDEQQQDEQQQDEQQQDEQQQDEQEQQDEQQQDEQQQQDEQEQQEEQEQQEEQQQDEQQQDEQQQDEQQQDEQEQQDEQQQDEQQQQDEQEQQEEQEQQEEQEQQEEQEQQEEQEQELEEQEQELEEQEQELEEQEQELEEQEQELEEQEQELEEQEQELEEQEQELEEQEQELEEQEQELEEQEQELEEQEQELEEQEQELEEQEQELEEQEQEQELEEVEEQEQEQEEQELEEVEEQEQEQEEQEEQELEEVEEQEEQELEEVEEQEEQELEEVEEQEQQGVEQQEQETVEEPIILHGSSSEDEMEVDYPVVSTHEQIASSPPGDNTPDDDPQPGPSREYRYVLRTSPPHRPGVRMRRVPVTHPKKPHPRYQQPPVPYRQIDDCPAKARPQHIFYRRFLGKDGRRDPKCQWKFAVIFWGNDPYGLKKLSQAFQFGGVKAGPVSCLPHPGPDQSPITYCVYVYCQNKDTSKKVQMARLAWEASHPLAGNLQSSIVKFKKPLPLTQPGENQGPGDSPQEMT
# Beta cell apopt – blocks beta cell apoptosis; INS-1E cytokine-induced death, ATP luminescence, 48 h; percent of positive-control rescue, neutral wells zero; 300,000 compounds, 0.8% hits; protection from apoptosis, % (concentration not given with the values); AID 435005;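 active means all replicates at 75% or more, or half of them and the mean; inconclusive means half reach 75% but not the mean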;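 further: 0% = cytokine-treated negative control wells and 100% = positive control rescue; higher means more ATP so stronger rescue from cytokine killing; wells of about 40 µL received 100 nL stock; the first replicate is given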
# rRNA inh HTS – selective bacterial rRNA inhibition in E. coli. E. coli WT GFP vs humanized-ribosome RFP mutants, fluorescence, 24 h; hits give low values; DMSO median 0, no signal -100. GFP signal change (wild-type ribosome), % (no concentration beside the values). 350,000 compounds, 1.6% hits;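 active means significant combined selectivity score with lowered wild-type GFP, culture density cut under 30%, mutant RFP and density less affected; inactive means any of these conditions unmet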; further: one replicate is shown; some compounds called inactive have numbers as strong as hits
# rRNA inh HTS OD600 – recorded beside rRNA inh HTS, whose call it bears; OD600 change, %; measured here: OD600 growth;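 optical density of the mix in the first replicate; 0 = DMSO median and -100 = no signal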
# rRNA inh HTS RFP – also measured in rRNA inh HTS; calls as there; RFP signal change, %; measured here: RFP humanized mutant strains;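 first replicate; 0 = DMSO median and -100 = no signal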
# An asterisk follows results filed as active; ? = inconclusive; nt = not tested or not shown. Only part of the results is shown; the hit share may differ from the screen's.
# The line under a structure holds: rRNA inh HTS OD600, rRNA inh HTS RFP, Beta cell apopt, ALR H2O2 inh, LANA-H2A inh, T cruzi repl, B2AR ag, A1 inh, Calb FLC, rRNA inh HTS
- COc1ccc(S(=O)(=O)N2CCCCC2)cc1NC(=O)Cn1c(=O)cnc2ccccc21
 : -5, 9.2, -7, nt, 1.6, 7, -12, 1.3, -12, 4
- CC(SCCc1ccccn1)C(=O)O (stereo unspecified)
 : nt, nt, -3, 1, 5.1, -12, 0, 0.3, -10, nt
- O=C(NC(=S)NCC1CCCO1)c1ccccc1Br (stereo unspecified)
 : nt, nt, -3, 31, 1.5, 8, 14, 1.3, 0, nt
- CC(C)(C)NS(=O)(=O)c1cc2c3c(c1)CCN3C(=O)CC2
 : 6, 0.2, -2, 2, 1.9, -3, -2, 1.3, 21, 0
- Cc1onc(-c2ccccc2Cl)c1C(=O)N1CCN(c2cccc(Cl)c2)CC1
 : 5, 2.0, nt, 2, -0.8, -11, -8, 1.4, -1, 3
- OC(COc1ccc2c(c1)OCO2)CN1CCN(c2ccc(F)cc2)CC1 (stereo unspecified)
 : -6, -3.5, 1, 58, 1.1, -3, 0, -0.5, ?, -3
- CCc1nnc(NS(=O)(=O)c2ccc(NC(=O)c3ccc(Cl)cc3)cc2)s1
 : -11, 0.2, 1, 6, 0.1, -5, 3, -0.5, -1, -17
- CN(CC(=O)Nc1ccc(F)c(Cl)c1)S(=O)(=O)c1ccc2c(c1)n(C)c(=O)c(=O)n2C
 : 13, -1.2, -1, 0, 0.5, -19, -6, -1.3, -1, 4
- O=C(c1ccc(OC2CCN(CCc3ccccc3)CC2)cc1)N1CCCC1
 : 5, 1.2, 4, -8, 4.6, 2, -3, -0.5, -3, 9
- Cc1ccccc1NC(=O)c1cnn(-c2ccccc2)c1C
 : -1, -1.8, 6, 6, 5.5, 13, -4, 0.6, -1, 9
- N=C1/C(=C/c2ccc(Br)o2)C(=O)N=C2SC(CC(=O)N3CCCC3)=NN12
 : 6, 3.7, -2, 13, 4.0, 1, 4, 0.3, 37, 5
- COc1cc(OC)cc(C(=O)NC(C(=O)NCc2ccccn2)C(C)C)c1 (stereo unspecified)
 : nt, nt, -2, -5, -0.9, nt, 0, -0.1, nt, nt
- Cc1[nH]c2ccccc2c1CCN(Cc1cccnc1)C(=S)Nc1cccc(F)c1
 : -48, 11, -5, 3, -4.1, 58*, -3, 0.6, 11, -20
- COc1ccc(C23NCCN2C(=O)c2ccccc23)cc1 (stereo unspecified)
 : 4, -2.0, -3, 0, 0.9, -3, -7, -0.7, -16, 4
- O=C(Cc1cccc2ccccc12)N/N=C/C=C/c1cccc([N+](=O)[O-])c1
 : 2, 2.6, 2, -5, 0.6, 28, 0, 0.5, 34, 19
- Fc1ccc(-c2nnc3sc(C4COc5ccccc5O4)nn23)cc1 (stereo unspecified)
 : nt, nt, -7, -5, -0.1, -8, -6, -0.1, 50, nt
- O=C(Nc1ccc(C(=O)O)cc1)/C(=C\c1ccc2c(c1)OCO2)NC(=O)c1ccc(Br)o1
 : 1, -0.1, nt, -18, 1.6, 5, 5, 0.1, -1, -1
- Cc1cn(S(=O)(=O)c2ccc(Cl)cc2)c(C)n1
 : 11, 0.5, -8, 1, -4.0, -6, -6, 1.8, -15, 11
- Cc1ccccc1CS(=O)(=O)c1ncc(Cl)c(C(=O)Nc2ccc(F)cc2)n1
 : 18, 0.6, 15, -8, -10, -44, 29, 0.7, 15, 13
- CC(C)C1N(C(N)=S)N=CC1(C)C (stereo unspecified)
 : 6, 0.7, -4, -5, 3.2, 5, 5, 1.0, -7, 0
- Cc1ccc(OCc2cc(C(=O)NCc3cnn(-c4cccc(F)c4)c3)no2)cn1
 : -5, -1.8, -3, 2, 1.5, 2, 97*, 0.6, 78*, -8
- Cc1cccc(-n2ncc3c(Nc4ccc(F)cc4)ncnc32)c1
 : 2, -2.8, 11, nt, -1.8, 6, -4, -0.6, -11, -3
- C=CCN1c2ccccc2[C@]23C[C@@H](C(=O)OC)N(C(=O)c4cc(C)oc4C)C2=NC(C(=O)OC)=C(C(=O)OC)[C@H]13
 : nt, nt, -4, -10, -2.3, -7, nt, 0.4, 13, nt
- CCC(C(=O)N1CCOCC1)n1nc(C)c2c(C)n(-c3ccccc3)nc2c1=O (stereo unspecified)
 : 7, -0.1, -1, -4, 2.4, -10, -2, -0.2, -2, 5
- O=C(NCCSc1ccc(Br)cc1)c1ccc2nc[nH]c2c1
 : -10, -0.4, -6, -19, -4.9, -4, 0, -0.2, 8, -14
- COc1ccc(NC(=O)c2onc(C)c2Cl)cc1OC
 : 5, 1.0, -2, -46, -0.3, -9, 0, -0.4, 1, 6
- Cc1cc(C)cc(C(=O)Nc2ccc(N3CCN(S(C)(=O)=O)CC3)cc2)c1
 : 8, 2.0, -4, nt, 3.8, -1, -2, 0.5, ?, 16
- CC(=O)Nc1ccc(S(=O)(=O)N(C)CC(=O)OCC(=O)N2CCCCCC2)cc1
 : 12, 5.3, -1, 4, -10, 1, 2, 0.0, -6, 13
- COc1ccc2c(c1)cc(C(=O)O)n2C
 : nt, nt, -3, -2, 0.7, -20, 10, -1.7, -30, nt
- O=C(CN1CCN(c2ccc(F)cc2)CC1)OCc1ccccc1
 : nt, nt, -4, 92*, 0.8, -7, 1, -0.3, -17, nt
- Cc1ccc(OCCCN2CCOCC2)cc1
 : 15, 1.2, -6, 0, 2.9, 7, -5, 1.3, 11, 14
- Cc1cccc(NC(=O)C2CCCN2C(=O)OCC(C)C)c1C (stereo unspecified)
 : 11, 2.6, -6, -1, 0.6, -4, -6, 0.3, -13, 13
- CCOc1ccc(NC(=O)N2CCC(c3nc4ccccc4o3)CC2)cc1
 : -22, -5.2, 1, nt, 3.8, 14, 26, -0.6, 34, -22
- COc1ccc(/C=C/C(=O)NCC(=O)N/N=C/c2cc(Br)ccc2OCc2ccccc2)cc1
 : nt, nt, 15, 18, 3.7, 1, -1, 1.0, -1, nt
- On1nnc2ccc(C(F)(F)F)cc21
 : 22, 5.0, -1, -3, 0.6, 9, -4, 0.2, -2, 14
- Cc1cc(C(=O)COc2ccc(C#N)cc2)c(C)n1CC1CCCO1 (stereo unspecified)
 : 7, 9.5, 2, -3, -2.2, nt, nt, -0.5, nt, 9
- O=C(c1cccc(OC2CCN(Cc3cccc(OCCO)c3)CC2)c1)N1CCCC1
 : 13, 0.2, 16, -9, 2.8, 11, -18, -0.8, -2, 7
- CC(=O)N1N=C(c2cccs2)CC1c1ccc(Br)cc1 (stereo unspecified)
 : -52, -11, -3, -27, 5.7, 19, -7, -1.0, -7, -27
- CCN(CC)S(=O)(=O)c1ccc(Cl)c(C(=O)Nc2nnc(C)s2)c1
 : nt, nt, -8, -1, 0.1, 7, 2, 0.9, 6, nt
- Cc1cc(-c2nnc(CCC(=O)NCC(C)c3ccccc3)o2)no1 (stereo unspecified)
 : 17, -0.3, -13, 11, -2.6, -8, -2, -0.2, -2, 7
- COc1ccc(-c2noc(N3CCC(C(=O)Nc4ccc(OC)c(OC)c4)CC3)n2)cc1
 : 8, 5.4, 1, 0, 3.9, 2, 1, -0.5, -9, 2
- CCN(CC(=O)Nc1ccc(NC(C)=O)cc1)C(=O)c1cc(CN2C(=O)c3ccccc3C2=O)ccc1OC
 : -14, 0.4, 2, 24, 0.8, -8, 8, 0.6, -2, 7
- Cc1cc(-c2nc3ncccc3o2)ccc1N
 : nt, nt, 2, 23, 4.8, 5, -6, -2.9, -1, nt
- Nc1nc(Oc2ccc(F)cc2)c(Br)c(=O)[nH]1
 : -18, -3.8, -9, 1, 2.9, -6, 6, 0.4, 0, -25
- COc1ccc(CCN(Cc2cc3cccc(C)c3n3nnnc23)C(=O)c2ccncc2)cc1OC
 : nt, nt, 3, -6, 4.1, 5, nt, -0.6, ?, nt
- O=C(NCc1ccccn1)c1cccc(S(=O)(=O)Nc2ccccc2Cl)c1
 : -3, -2.6, -1, 12, 0.5, nt, 3, 1.0, nt, -11
- O=C(Nc1ccc2c(c1)C(=O)N(CC1CCCO1)C2=O)c1ccccc1Br (stereo unspecified)
 : nt, nt, 4, -6, 0.4, -18, 2, -0.2, -12, nt
- CC1CC(C)CN(C(=O)CCNS(=O)(=O)c2ccc3c(c2)CCC(=O)N3)C1 (stereo unspecified)
 : nt, nt, -3, 2, -5.1, -41, -1, -0.2, -10, nt
- CCCn1nc(C(=O)Nc2ccc(S(=O)(=O)Nc3ncccn3)cc2)c2ccccc2c1=O
 : 4, 6.5, -8, -10, 0.6, 3, -8, -0.3, -1, 8
- NS(=O)(=O)c1ccc(CCNC(=O)c2ccc([N+](=O)[O-])cc2[N+](=O)[O-])cc1
 : 5, 11, 11, -305, 4.0, -2, -9, 1.2, -19, 3
- Cn1cccc1-c1cc(C(=O)O)[nH]n1
 : nt, nt, 1, -13, -1.7, -14, 2, -0.7, -16, nt
- CC12CCC(C(=O)N(NC(=O)c3ccccc3O)C1=O)C2(C)C (stereo unspecified)
 : -1, -15, 8, 12, 5.3, -16, -5, 1.4, 107*, 11
- COc1ccc(NS(=O)(=O)/C=C/c2ccc(OC)c(OC)c2)cc1
 : -36, -4.0, 2, -3, 1.3, 3, 3, 0.3, 55, -20
- COCCN(C(=O)CCC(=O)Nc1cc(C)on1)C(C(=O)NC(C)(C)C)c1ccccc1Cl (stereo unspecified)
 : 17, 1.3, 2, nt, -7.4, -5, -2, 0.0, -3, 12
- Cc1ccc(NC(=O)CSc2nnc(Cc3csc(C)n3)o2)c(C)c1
 : 8, -1.8, 0, 7, -4.1, 2, -10, 0.1, 3, 4
- CN(C(=O)COC(=O)C12CC3CC(CC(Cl)(C3)C1)C2)C1(C#N)CCCCC1
 : -19, 0.6, 1, -3, 4.7, nt, 4, 0.3, nt, -18
- NC(=O)c1cc2ccccc2o/c1=N/NC(=O)c1cccc(Cl)c1
 : 15, 11, 2, -4, 0.1, -8, -5, 0.7, 31, 8
- CCOc1ccc(OCCC(=O)N(CCC(C)C)c2c(N)n(Cc3ccccc3)c(=O)[nH]c2=O)cc1
 : 8, -0.5, nt, -12, -1.6, -1, -2, 0.3, -2, 13

# Reformatted with tabs: 3 of the compounds above.
smiles	rRNA inh HTS OD600	rRNA inh HTS RFP	Beta cell apopt	ALR H2O2 inh	LANA-H2A inh	T cruzi repl	B2AR ag	A1 inh	Calb FLC	rRNA inh HTS
Cc1ccc(NC(=O)CSc2nnc(Cc3csc(C)n3)o2)c(C)c1	8	-1.8	0	7	-4.1	2	-10	0.1	3	4
CN(C(=O)COC(=O)C12CC3CC(CC(Cl)(C3)C1)C2)C1(C#N)CCCCC1	-19	0.6	1	-3	4.7	nt	4	0.3	nt	-18
NC(=O)c1cc2ccccc2o/c1=N/NC(=O)c1cccc(Cl)c1	15	11	2	-4	0.1	-8	-5	0.7	31	8
